From PubChem
2A Renilla: FMDV 2A StopGo reporter, Renilla signal; HEK cells with a luciferase reporter of 2A StopGo recoding; 120,000 tested, 0.32% active; Potency, µM (top dose mostly 57.5 µM), for inactives: at the top dose signal change, negative = less light; active means well fitted falling curve with a large enough effect; inconclusive means small, poorly fitted or top-dose-only effect; inactive means no such curve, though single readings can be large or run the other way; note: nearly all actives have a fitted effect of over 55% in size; overnight with compound
StopGo FLuc: FMDV 2A StopGo reporter, firefly signal; Potency, µM (series often up to 57.5 µM), inactives show at the highest dose signal change, negative = less light; 120,000 tested, 0.23% active; HEK cells with a luciferase reporter of 2A StopGo recoding; active = well fitted falling curve with a large enough effect; inconclusive = small, poorly fitted or top-dose-only effect; inactive = no such curve, though single readings can be large or run the other way; note: nearly all actives have a fitted effect of over 60% in size; overnight with compound
* = called active by the depositor; ? = inconclusive; & = joins results of further samples; [ ] = another dose, or the depositor's remark. % is set by controls: 0 for no effect and ±100 for the full control effect; potency is the fitted concentration of half-maximal effect.

The opening 5 records, to show the layout:
SMILES	2A Renilla	StopGo FLuc
CCOC(=O)c1ccc(OCC2c3cc(OC)c(OC)cc3CCN2C(=O)Cc2ccc(F)cc2)cc1 (stereo not given)	-2%	-10%
COc1ccc(COc2ccc3c(C)cc(=O)oc3c2)cc1	-1%	174%[activator]
COc1ccc(OC)c(CNC(=O)c2cccc(NC(=O)N3CCSc4ncccc43)c2)c1	-10%	-22%
Cc1ccc2c(c1)c1c(c(=O)n(-c3ccccc3)c(=O)n1CC(=O)N1CCCC1)n2C	-4%	-7%
Cc1nc(-c2c(Cl)cccc2Cl)sc1C(=O)N[C@H](C(=O)O)C(C)C	6%	14%

The listing, repeating the preview:
SMILES	2A Renilla	StopGo FLuc
CCOC(=O)c1ccc(OCC2c3cc(OC)c(OC)cc3CCN2C(=O)Cc2ccc(F)cc2)cc1 (stereo not given)	-2%	-10%
COc1ccc(COc2ccc3c(C)cc(=O)oc3c2)cc1	-1%	174%[activator]
COc1ccc(OC)c(CNC(=O)c2cccc(NC(=O)N3CCSc4ncccc43)c2)c1	-10%	-22%
Cc1ccc2c(c1)c1c(c(=O)n(-c3ccccc3)c(=O)n1CC(=O)N1CCCC1)n2C	-4%	-7%
Cc1nc(-c2c(Cl)cccc2Cl)sc1C(=O)N[C@H](C(=O)O)C(C)C	6%	14%
Cc1ccc(C)c(N2CCN(c3nc4ccccc4c(=O)n3-c3ccccc3)CC2)c1	-14%	-4%
CC(C)NC(=O)C(C)Cl (stereo not given)	-8%	-11%
Cc1cc(=O)oc2cc(OC(C)C(=O)NCCCn3ccnc3)ccc12 (stereo not given)	28%	33%[activator]
CNc1c(NS(=O)(=O)c2cc(C)cc(C)c2)c(=O)oc2ccccc12	2%	3%
C=CCNCc1c(OCC)ccc2ccccc12	-3%	-4%
COc1ccc(CNC(=O)CCCN2C(=O)c3cccnc3Oc3ccc(Cl)cc32)cc1	7%	-7%
Cc1cc(C(=O)Cn2cnc3c2c(=O)n(C)c(=O)n3C)c(C)n1C	42%[activator]	0%
COC(=O)c1ccccc1NC(=O)c1cc(-c2ccccc2O)no1	14%	21%
CCC(C)NC(=O)CSc1nc(-c2ccc(F)cc2)cc(C(F)(F)F)n1 (stereo not given)	-8%	-8%
COc1ccc(S(=O)(=O)Oc2ccc3c(c2)O/C(=C\c2ccc(OC)c(OC)c2OC)C3=O)cc1	?	?
Cc1cccc(CNC(=O)CCn2c(=O)c3cccn3c3ccc(F)cc32)c1	20%	1%
COc1cccc2c1Oc1c(c(=O)n(-c3ccccc3)n1CC(=O)Nc1ccc(F)c(Cl)c1)C2	16%	48%[activator]
COC(=O)c1cccc(OCC(O)CN(C)C(C)c2cccs2)c1 (stereo not given)	11%	13%
N#CC1=C(N)Oc2c(c(=O)[nH]c3ccccc23)C1c1cccc(Cl)c1Cl (stereo not given)	-13%	-14%
COc1ccc(S(=O)(=O)N2CCN(Cc3nc4ccc(C)cc4o3)CC2)cc1	-14%	35%[activator]
O=C1CSC2(C(=O)Nc3ccccc32)N1c1ccc(F)cc1 (stereo not given)	1%	-7%
CC(C1CC1)N(C)C(=O)c1cn(Cc2ccccc2)c2ccccc12 (stereo not given)	171%[activator]	-1%
CCN(CCC(F)(F)F)C(=O)NCc1cccc2cccnc12	9%	37%[activator]
COc1ccc(Cc2nnc3n2N(C(C)=O)C(c2ccccc2)=C(C(C)=O)S3)cc1	?	-28%
CCc1nc2ccccc2n1CCCCOc1ccccc1C	?	11µM*
Cc1cccc(NC(=O)c2nn(C(C)C)c(=O)c3ccccc23)c1C	-1%	2%
Cc1ccccc1-c1nc(-c2ccc(Br)cc2)no1	12%	270%[activator]
CCOc1ccc(Cn2c(Oc3ccc(F)cc3)nc3c2c(=O)n(C)c(=O)n3C)cc1OCC	-4%	-8%
Cc1ccc(N=C2NN=C(c3c[nH]c(C(=O)N4CCCC4)c3)CS2)cc1C	56%[activator]	82%[activator]
COC(=O)CCC(=O)c1cc(OC)ccc1OC	16%	18%
Cc1nc(-c2cccnc2)sc1CCNS(=O)(=O)c1ccc(Cl)s1	180%[activator]	6%
CCOc1cc(C(=O)OCC(N)=O)cc(OCC)c1OCC	-2%	-4%
O=C1NC2(CCCCC2)N(C(=O)c2ccccc2Cl)C2=C1CCCC2	0%	-10%
COC(=O)C(NC(=O)Nc1ccccc1)C12CC3CC(CC(C3)C1)C2 (stereo not given)	11%	1%
Cc1ccc(S(=O)(=O)N(C)C)cc1NC(=O)c1nn(Cc2ccccc2)c(=O)c2ccccc12	-2%	-15%
Cc1oc2cc3o/c(=N/O)c4c(c3cc2c1C)CCC4	-20%	0%
O=C(Nc1c(F)cccc1F)c1cc(-c2ccccn2)nc2ccccc12	9%	11%
COc1ccc(S(=O)(=O)NCCc2cn3ccsc3n2)cc1	80%[activator]	-18%
O=C(Nc1cccc(Cl)c1Cl)c1cc(S(=O)(=O)N2CCCCC2)ccc1F	-6%	7%
CCOc1ccccc1NC(=O)COc1ccccc1C(=O)c1cc(C#N)c(=O)n(C2CCCCC2)c1	1%	-1%
Cc1ccc(C(=O)N/N=C/c2ccncc2)s1	86%[activator]	104%[activator]
CN(CC(O)COCC(Cl)CCl)S(=O)(=O)O (stereo not given)	-5%	16%
COC(=O)COc1ccc2oc(-c3ccc(OC)cc3)cc(=O)c2c1	-7%	53%[activator]
CS(=O)(=O)Nc1cccc(CNC(=O)CC2CCCCC2)c1	3%	2%
O=c1[nH]c(CSc2nnc(N3CCCCC3)n2-c2ccccc2)nc2cc(Cl)ccc12	9%	-14%
Cc1cccc(CC(=O)Nc2c(C(=O)Nc3cccc(F)c3)oc3ccccc23)c1	6%	140%[activator]
Cc1ccc(-c2csc(N)c2C#N)cc1	17%	151%[activator]
Cc1ccc2sc(-c3ccc(N)cc3)nc2c1	0%	-35%
COc1cccc(NC(=O)CN(C)C(=O)c2ccc(-c3ccccc3Cl)o2)c1	7%	23%
CC1=C(C#N)C(NC(=O)C2CCCCC2)(C(F)(F)F)C(=O)N1 (stereo not given)	9%	7%
CC(C)(C)c1ccc(C(=O)N/N=C/Cc2ccccc2)cc1	0%	37%[activator]
COc1cccc(CNC(=O)C(c2ccccc2)c2ccccc2)c1	-14%	-6%
CCCCc1cc(=O)oc2cc(C)c3c(C(C)(C)C)coc3c12	-18%	9%
COc1ccccc1N1CCN(c2ncnc3c2cnn3-c2cc(Cl)ccc2C)CC1	-10%	?
O=C(O)c1cc2ccc(OCc3ccccc3)cc2[nH]1	12%	149%[activator]
CCOc1ccc(-n2nc(C(=O)NCCCN3CCN(CC)CC3)c3ccccc3c2=O)cc1	-4%	-6%
Cc1c(C(=O)NCc2ccc(Cl)cc2)oc2ccc3c(c12)C(=O)CC(C)(C)O3	46%[activator]	57%[activator]
O=C(Cn1c(=O)n(Cc2ccc3c(c2)OCO3)c(=O)c2ccccc21)Nc1cccc(Cl)c1	-13%	-27%
CCc1ccc(NCc2cc3cc4c(cc3n(CC(=O)Nc3ccc(F)cc3)c2=O)OCCO4)cc1	7%	0%
CCCCN(CC)C(=O)COc1ccccc1C#N	5%	5%
(further entries)
SMILES	2A Renilla	StopGo FLuc
Cc1ccc2c(=O)cc(C(=O)Nc3ccc(S(=O)(=O)N4CCC(C)CC4)cc3)oc2c1C	-10%	-6%
CCCCN(Cc1ccccc1)c1ccc(NS(=O)(=O)c2cccs2)cc1C(=O)O	31%[activator]	10%
COc1ccc(CCNC(=O)CCc2c(C)nc3c(c(C)nn3-c3ccc(C)cc3)c2C)c(OC)c1	5%	27%
O=C(CCc1ncc(-c2ccc(F)cc2)o1)N1CCCCC1Cc1ccccc1 (stereo not given)	?	?
CCS(=O)(=O)N1CCc2cc(C(=O)N3CCN(c4ccccc4OC)CC3)ccc21	39%[activator]	80%[activator]
COc1ccc(-c2nn(CC(=O)NC3CCCC3)c3c2cnc2ccc(F)cc23)cc1	-3%	51%[activator]
O=C(NCc1ccccc1)C(=O)Nc1ccc2nc3n(c(=O)c2c1)CCCCC3	8%	-12%
CC(Sc1n[nH]c(-c2ccccc2)n1)c1nc(C(C)(C)C)no1 (stereo not given)	50%[activator]	24%
COC(=O)c1cc(S(=O)(=O)N(C)CC(=O)N2CCN(c3cc(Cl)ccc3C)CC2)cn1C	-25%	-27%
O=C(Nc1ccc(Cl)cc1)c1ccc2oc(=O)n(Cc3ccccc3)c2c1	11%	-1%
O=c1c2oc3ccccc3c2n(Cc2ccccc2F)c(=O)n1Cc1ccccc1	-18%	-7%
COCCn1c(C)cc(O)c(C(c2ccc(C)cc2)N2CCCCC2)c1=O (stereo not given)	-13%	-25%

Single records (already shown). Screens in order: 2A Renilla | StopGo FLuc
Record of O=C(CCc1ncc(-c2ccc(F)cc2)o1)N1CCCCC1Cc1ccccc1 (stereo not given) = ? | ?
Record of CCCCN(Cc1ccccc1)c1ccc(NS(=O)(=O)c2cccs2)cc1C(=O)O = 31%[activator] | 10%
Record of COCCn1c(C)cc(O)c(C(c2ccc(C)cc2)N2CCCCC2)c1=O (stereo not given) = -13% | -25%
Record of COc1ccc(-c2nn(CC(=O)NC3CCCC3)c3c2cnc2ccc(F)cc23)cc1 = -3% | 51%[activator]

Next part.
SMILES	2A Renilla	StopGo FLuc
CC(Sc1nc(-c2cccs2)nc2ccccc12)C(=O)NC(C)(C)C (stereo not given)	3%	8%
Cc1nn(CC(=O)N2CCCCC2C)c(C)c1S(=O)(=O)NC(C)(C)C (stereo not given)	9%	0%
COCCn1c(CCC(=O)Nc2cc(F)ccc2C)nc2c1c(=O)[nH]c(=O)n2CC(C)C	-2%	2%
Cc1c(NC(=O)NCc2ccccc2)cccc1C(N)=O	0%	11%
O=C(NCc1ccccc1)c1ccc(CSc2nc3cccnc3n2Cc2ccccc2)cc1	20%	-18%
CCOc1ccc(-c2nc(C#N)c(NCc3ccco3)o2)cc1	113%[activator]	114%[activator]
CCn1nc(C(=O)N(C)c2cc(F)ccc2F)c2ccccc2c1=O	14%	12%
CCCCn1cc(S(=O)(=O)c2ccccc2)c(=O)c2cc(F)c(N3CCC(C)CC3)cc21	4%	-10%
CS(=O)(=O)c1cccc(C(=O)NCc2coc(-c3cccs3)n2)c1	4%	-7%
FC(F)(F)c1ccc(/C=N/Nc2cc(C(F)(F)F)ccc2Cl)cc1	1%	2%
COc1ccccc1CNC(=O)c1cc2ccc3ccc(C)[nH]c3c2n1	0%	0%
CCOC(=O)c1cnc2c(OC)cccc2c1Nc1cccc(O)c1	3%	7%

6 structures already listed, arranged by molecular weight, ascending:
SMILES	2A Renilla	StopGo FLuc
Cc1c(NC(=O)NCc2ccccc2)cccc1C(N)=O	0%	11%
CS(=O)(=O)c1cccc(C(=O)NCc2coc(-c3cccs3)n2)c1	4%	-7%
FC(F)(F)c1ccc(/C=N/Nc2cc(C(F)(F)F)ccc2Cl)cc1	1%	2%
Cc1nn(CC(=O)N2CCCCC2C)c(C)c1S(=O)(=O)NC(C)(C)C (stereo not given)	9%	0%
COCCn1c(CCC(=O)Nc2cc(F)ccc2C)nc2c1c(=O)[nH]c(=O)n2CC(C)C	-2%	2%
CCCCn1cc(S(=O)(=O)c2ccccc2)c(=O)c2cc(F)c(N3CCC(C)CC3)cc21	4%	-10%

Later entries.
SMILES	2A Renilla	StopGo FLuc
COc1ccc(C(=O)Nc2nnc(C(C)C)s2)cc1OC	-6%	85%[activator]
COc1ccc(Cl)cc1NC(=O)C1CCN(S(=O)(=O)c2ccc(F)cc2)CC1	10%	-15%
CC(C)Oc1nc2ccccc2nc1N1CCC(C(=O)Nc2ccc(Cl)cc2)CC1	-2%	-3%
CCc1ccc(CN(C(=O)c2cc3ccccc3oc2=O)C2CCS(=O)(=O)C2)cc1 (stereo not given)	23%&22%	86%&112%[activator]
COc1cccc(N2CCN(C(=O)Cn3cnc4onc(-c5ccc(F)cc5)c4c3=O)CC2)c1	-12%	-2%
COC(=O)C(C#N)c1nc2ccccc2nc1NCCCO (stereo not given)	29%	0%
CCc1ccc(-c2nc(CS(=O)CC(=O)NCCc3ccc(Cl)cc3)c(C)o2)cc1 (stereo not given)	?	-32%
CCOc1ccc(NC(=O)CN(C)S(=O)(=O)c2ccc3c(c2)c(=O)n(C)c(=O)n3C)cc1	-13%	-5%
COc1ccc(-n2ncc3c(NC(C)(C)CO)ncnc32)cc1	3%	44%[activator]
CC(C)NC(=O)c1c(Cl)cccc1Cl	6%	12%
COc1ccc(NC(=O)CSCc2cc(=O)c3cc(C)ccc3[nH]2)cc1	10%	-9%
O=C(Cn1nc(-c2ccccc2F)ccc1=O)NCc1cccnc1	-11%	-3%
COc1ccc(Cl)cc1NCc1nnc2n1CCCCC2	27%	-17%
CC1CCC(Nc2ccnc3cc(Cl)ccc23)CC1 (stereo not given)	-7%	16%
CCOC(=O)c1ccc(NC(=O)CSc2nc3c([nH]c4ccccc43)c(=O)n2C)cc1	29%	1%
COc1cc(C2NC(=O)c3c(sc4c3CCN(C)C4)N2)cc(Br)c1OC(=O)c1ccc(C)cc1 (stereo not given)	-4%	1%
Cc1csc(C(C#N)C(=O)CSc2ccc3c(c2)OCCO3)n1 (stereo not given)	-3%	9%
COCCNC(=O)c1ccc2c(c1)N(Cc1cccc(Cl)c1)C(=O)c1ccccc1S2(=O)=O	52%[activator]	-20%
Cn1c(=O)c2c(ncn2CCC(=O)N2CCN(Cc3ccccc3)CC2)n(C)c1=O	-10%	4%
O=C1CCC(c2ccccc2)=NN1c1ccccc1	-3%	8%
COc1cccc(NC(=O)c2cc3ccc(O)cc3oc2=O)c1	?	?
Cc1ccc2c(CNCc3cccc(Cl)c3)c(C(=O)O)n(Cc3ccc(F)cc3Cl)c2c1	-10%	-5%
